KAT2A inh = GCN5L2 (KAT2A) acetyltransferase inhibition; 390,000 tested, 0.21% active; AID 504327; GCN5L2 HAT assay, ThioGlo1 CoA-SH fluorescence; Potency, µM (top dose mostly 58.9 µM), for inactives: at the top dose activity change, negative = inhibition, usual class: inhibitors; Q92830
Target sequence (Q92830 whole entry, looked up): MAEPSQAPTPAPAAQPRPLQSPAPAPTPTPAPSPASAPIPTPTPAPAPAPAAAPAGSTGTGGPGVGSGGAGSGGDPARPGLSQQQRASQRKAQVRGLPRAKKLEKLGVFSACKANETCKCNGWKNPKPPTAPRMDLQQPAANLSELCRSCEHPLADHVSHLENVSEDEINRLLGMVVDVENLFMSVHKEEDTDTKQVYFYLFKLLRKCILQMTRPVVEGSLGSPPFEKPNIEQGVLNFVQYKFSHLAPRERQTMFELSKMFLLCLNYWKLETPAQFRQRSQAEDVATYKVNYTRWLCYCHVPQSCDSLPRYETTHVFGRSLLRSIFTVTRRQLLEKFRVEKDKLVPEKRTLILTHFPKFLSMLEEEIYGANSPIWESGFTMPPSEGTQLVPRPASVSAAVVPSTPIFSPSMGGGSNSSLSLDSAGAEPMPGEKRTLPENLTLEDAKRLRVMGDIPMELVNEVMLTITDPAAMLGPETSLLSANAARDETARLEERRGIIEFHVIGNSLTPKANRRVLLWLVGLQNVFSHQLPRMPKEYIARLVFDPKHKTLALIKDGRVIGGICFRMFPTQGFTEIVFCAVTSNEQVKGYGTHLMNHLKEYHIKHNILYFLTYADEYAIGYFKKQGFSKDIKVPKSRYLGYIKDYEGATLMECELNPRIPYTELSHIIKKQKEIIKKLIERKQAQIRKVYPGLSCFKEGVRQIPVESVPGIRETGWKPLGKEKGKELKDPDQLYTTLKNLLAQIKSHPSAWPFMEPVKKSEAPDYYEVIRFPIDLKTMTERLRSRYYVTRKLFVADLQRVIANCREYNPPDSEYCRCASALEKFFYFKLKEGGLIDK
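Preincubate 20nM GCN5L2 with compound 15 min, RT → add 50uM ThioGlo1 + 75uM H3(1-25) + 70uM acetyl-CoA → read fluorescence 0 and 20 min. Primary qHTS; fluorescent artifacts likely.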
N370S GC mod = inhibits or activates N370S mutant glucocerebrosidase; P04062; N370S GC spleen homogenate, 4MU-glucoside fluorescence; Potency, µM (top dose mostly 59.4 µM), for the others: at the top dose activity change, negative = inhibition, most hits filed as inhibitors; 330,000 tested, 0.092% active; AID 2101;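 further: 0% = full enzyme activity and -100% = no enzyme basal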
* = called active by the depositor; ? = inconclusive; nt = no result given; & = joins results of further samples; [ ] = remark or other dose. The call rests on the fitted dose curve; in most records, active means well fitted curve in the direction sought with a large enough effect; inconclusive means small, poorly fitted or top-dose-only effect, or another doubt; inactive means no such curve, though single readings can be large; an effect the other way counts as inactive or inconclusive. Unless noted, on the % scale 0 is the no-effect control and ±100 the full control effect; potency means the concentration at half of the fitted maximal effect. Only part of the results is shown, and most or all hits are left out here.

Compound,N370S GC mod,KAT2A inh
Cc1ccc(-n2c(C)cc(C(=O)C(=O)Nc3ccccc3)c2C)c(C)c1,nt,-3%
COc1cc(-c2c(C#N)c(N)nc3c2CCCC3)cc(OC)c1OC,3%,-2%
O=C(NCCC(=O)N1CCCCC1)c1ccc(Br)cc1,?,2%
C/C(=N\Nc1nc(-c2ccccc2)cs1)c1cccs1,4%,-14%
CCC(C)[C@H]1COCCS(=O)(=O)N1Cc1ccc(C)cc1 (stereo not given in full),4%,-4%
COc1cc(CC(=O)OCc2cccc([N+](=O)[O-])c2)cc(OC)c1OC,-4%,-2%
CCCn1c(SCC(=O)Nc2cc(Cl)ccc2OC)n[nH]c1=O,3%,-4%
CCN1CCCc2cc(CN(CCN3CCOCC3)C(=O)Nc3ccc(C)c(C)c3)ccc21,-19%,3%
CCOC(=O)C1=C(c2ccccc2)Nc2ncnn2C1c1cc(OC)cc(OC)c1OC (stereo not given),1%,-6%
CCN[C@H]1CN(CCCOC)S(=O)(=O)c2sc(S(N)(=O)=O)cc21,-22%,-18%

Additional entries.
Compound,N370S GC mod,KAT2A inh
Cc1ccc(OCc2nnc(-c3ccccc3)o2)cc1,nt,-1%
COc1ccc(NC(=O)c2cnc(NS(=O)(=O)c3ccccc3)nc2)cc1,4%,-3%
CNS(=O)(=O)c1ccc(N2CCCC2=O)c([N+](=O)[O-])c1,0%,2%
O=C(Nc1ccc(C(O)(C(F)(F)F)C(F)(F)F)cc1)c1ccc(Cl)c([N+](=O)[O-])c1,-28%,-9%
CCOc1ccc(Cc2c(Cl)nc(SC)nc2N(C)C)cc1,4%,-5%
COc1cc(C(=O)NCc2ccc3c(c2)cc(C)n3C)cc(OC)c1OC,-2%,-11%
CCO[C@@H]1OC(C(=O)NCc2ccccc2)=C[C@H](c2ccccc2)[C@H]1CCCO,13%,1%
CC(=O)c1cccc(NC2c3ncccc3C(=O)N2Cc2ccco2)c1 (stereo not given),-13%,-5%
O=C(CCCCCN1C(=O)c2ccccc2C1=O)Nc1ccccc1F,-16%,-3%
COC(=O)c1ccc(/C=N/NC(=O)CNc2cccc(C)c2)cc1,-15%,9%

(next part)
Compound,N370S GC mod,KAT2A inh
Cn1c(=O)c2c(ncn2C)n(C)c1=O,-1%&-8%&3%&8%&-11%&-8%&9%,0%&-15%
O=[N+]([O-])c1ccc2[nH]c(O)c(N=Nc3ccc(F)cc3)c2c1,-15%,-10%
COc1ccc(OC(=O)COc2ccc(Cl)cc2)cc1,-1%,0%
O=C(O)CCc1nc(-c2ccccc2)c(-c2ccccc2)o1,-1%,-5%
Clc1ccc(C2=CSC3=NCCN23)cc1Cl,-12%,-2%
NC(=O)c1ccc(NC(=O)COC(=O)C2CCN(S(=O)(=O)c3cccs3)CC2)cc1,nt,-2%
COc1ccccc1CC(=O)NCc1nn(-c2ccccc2)nc1C,7%,2%
COCCN1C(=O)N[C@@H](c2ccccc2)C(C(C)=O)=C1C,8%&5%,2%
C/C(=N\NC(=O)C1COc2ccccc2O1)c1ccccn1 (stereo not given),-2%,1%
O=C(NCc1ccc(Cl)cc1)C1CCC(=O)N(C2CCCCCC2)C1 (stereo not given),-3%,?

Later entries
Compound,N370S GC mod,KAT2A inh
Cc1ccccc1C1C(C#N)=C2N=C(N)c3ccccc3N2C2=C1C(=O)CCC2 (stereo not given),26%,-8%
CCCn1nnnc1SCC(=O)N1CCCC1,-19%,-5%
CC(C)CNS(=O)(=O)c1ccc(NC(=O)Cn2nc(-c3ccc(F)cc3)ccc2=O)cc1,8%,-2%
CCc1ccccc1NC(=O)Cn1nc(C(F)(F)F)cc1C1CC1,13%,1%
Cc1ccc(CN(C)C(=O)COC(=O)CSc2ccc([N+](=O)[O-])cc2)cc1,-10%,-6%
C=CCN(c1ccc(C(=O)Nc2ccc3c(c2)OCO3)cc1)S(C)(=O)=O,-2%,-11%
O=C(Nc1cccc(Cl)c1)Nc1sccc1-c1nc2ccccc2s1,5%,-4%
COc1ccc(NC(=O)CSC2CC(=O)N(c3ccc4c(c3)OCCO4)C2=O)cc1 (stereo not given),10%,-2%
O=C(O)c1cccc(S(=O)(=O)Nc2ccccc2-c2ccccc2)c1,-1%,-5%
CCOC(=O)c1cn2c(C)cccc2n1,-8%,-10%

Going on with the list.
Compound,N370S GC mod,KAT2A inh
Cc1sc2nc(CSCC(=O)N(C)c3ccccc3)[nH]c(=O)c2c1C,11%,27%
CS(=O)(=O)c1ccc(Cl)c(NC(=O)COC(=O)c2cccc(S(=O)(=O)N3CCCC3)c2)c1,2%,2%
CCCC(=O)NCCc1cc2ccc(C)c(C)c2[nH]c1=O,14%,-6%
COc1ccc(CC(=O)Nc2ccc(C)c(S(=O)(=O)N3CCCCCC3)c2)cc1,nt,-1%
O=C(CSc1nc2cc(Cl)ccc2c(=O)n1Cc1ccco1)Nc1ccc(S(=O)(=O)N2CCOCC2)cc1,8%,-5%
COc1ccc(N2CCN(C(=O)C3CCN(S(=O)(=O)Cc4ccccc4)CC3)CC2)cc1,nt,-2%
C/C(=N\S(=O)(=O)c1ccc(C)cc1)NC(=S)Nc1ccccc1,-6%,1%
CCOC(=O)Cn1cc(C#N)c(=O)[nH]c1=O,-5%,10%
COc1ccc(OC)c(S(=O)(=O)N2CCC3(CC2)CC(=O)c2ccccc2O3)c1,-24%,-1%
O=C(Nn1c(Cc2cccs2)nc2ccccc2c1=O)c1ccc(F)c(F)c1,4%,0%

More entries
Compound,N370S GC mod,KAT2A inh
Fc1ccccc1Cn1nnc(-c2ccc3c(c2)OCO3)n1,?,-6%
COc1ccc(Cl)cc1C(=O)Nc1ccc(Br)c(C)n1,8%,2%
CS(=O)(=O)N1CCN(c2ccccc2NC(=O)c2cccc3ccccc23)CC1,2%,4%
CCOCCCNC(=O)c1ccc2c(=O)n(Cc3ccc4c(c3)OCO4)c(=S)[nH]c2c1,2%,0%
COc1ccccc1CNC(=O)CSc1nc(-c2ccccc2)cn1N,5%,-2%
O=C(COC(=O)c1cccnc1Cl)Nc1cc(S(=O)(=O)N2CCOCC2)ccc1Cl,nt,2%
Cc1ccc(CNC(=O)C2CC(c3ccc(C(F)(F)F)cc3)=NO2)o1 (stereo not given),-1%,1%
O=C(CSc1nnc(NC(=O)C2CC2)s1)NCc1ccccc1Cl,-1%,-3%
O=C(N/N=C/c1cccs1)c1ccc(-n2cccc2)cc1,6%,-11%
O=C(CSc1nc2ccccc2o1)Nc1ccc(Cl)cc1,26%,-3%

Further structures
Compound,N370S GC mod,KAT2A inh
Cn1c(N)cc(=O)n(Cc2ccccc2)c1=O,12%&-13%,-5%
CCCn1c(SCC(=O)Nc2cc(S(=O)(=O)N3CCOCC3)ccc2OC)n[nH]c1=O,-6%,-4%
O=C1CNC(=O)/C1=C\N1CCCCC1,-1%,3%
CC(=O)N(Cc1cccnc1)c1cccc(-c2nc3ccccc3s2)c1,-1%,-4%
CC(Oc1cccc(Br)c1)C(=O)NNC(=O)CCS(=O)(=O)c1ccccc1 (stereo not given),nt,0%
CN(CC(=O)NCc1ccccc1)Cc1ccc(Cl)cc1,-4%,-2%
O=C(COC(=O)c1ccccc1C(=O)N1CCN(c2ccccc2)CC1)Nc1ccc(F)cc1,-17%,-4%
CN(CC(=O)Nc1ccc(N2CCOCC2)cc1)C(=O)COc1ccccc1F,-16%,-10%
Cc1ccc(C(=O)NCCNS(=O)(=O)c2ccccc2)cc1,7%,1%
O=C(NCCc1ccc(Cl)cc1)c1cccs1,-1%,0%

(continued)
Compound,N370S GC mod,KAT2A inh
COc1cc(C2NC(=O)NC(O)(C(F)(F)F)C2C(=O)c2cccs2)ccc1O (stereo not given),-7%,0%
COc1ccc(NC(=O)COC(=O)CCc2nc3ccccc3c(=O)[nH]2)c(OC)c1,nt,-1%
CCC(=O)Nc1ccc(NC(=O)c2cccc3ccccc23)cc1,1%,-8%
COc1cccc(N2CC(C(=O)Nc3nnc(SCC(=O)NCc4ccco4)s3)CC2=O)c1 (stereo not given),-2%,?
CCOCCCN(C(=O)Cn1nnc(-c2ccc(C)o2)n1)C(C(=O)NC1CCCC1)c1ccco1 (stereo not given),-5%,-4%
Nc1nc(-c2cccs2)c(NC(=O)c2ccccc2)s1,-14%,-6%
NNC(=O)Cn1c(-c2ccccc2)cc(=O)n2ncnc12,-4%,-3%
CCCN1CNc2c(c(=O)[nH]c(=S)n2-c2ccc(Cl)cc2)C1,-13%,-11%
CC(Oc1ccc2c(-c3ccccc3)cc(=O)oc2c1)C(=O)NC(Cc1c[nH]c2ccccc12)C(=O)O (stereo not given),nt,2%
CCc1nn(CC(=O)O)c(=O)c2ccccc12,-7%,-5%

Following part.
Compound,N370S GC mod,KAT2A inh
N=c1oc2ccc(Cl)cc2cc1C(=O)NC1CCCCCC1,2%,-1%
O=C(CN1CCCCCC1)Nc1ccccc1Cl,-7%,-4%
Cc1nnsc1C(=O)NC(C)c1ccccc1 (stereo not given),4%,-7%
N/C(Cc1ccc(Cl)cc1Cl)=N\OC(=O)Cc1ccc(Cl)cc1,4%,2%
COc1cccc(CN(C)S(=O)(=O)c2ccccc2Br)c1,nt,-6%
COCCn1c(SCC(=O)Nc2ccccc2OC)nnc1-c1ccco1,-1%,-3%
COc1ccccc1CNS(=O)(=O)c1ccc(-c2cc(C)no2)cc1,2%,-13%
COc1ccc(N2C(=O)CS(=O)(=O)C23C(=O)N(Cc2ccccc2F)c2ccccc23)cc1Cl (stereo not given),nt,-6%
CCN(CC)S(=O)(=O)c1ccc(-c2nnc(SCC(=O)Nc3ccc4c(c3)OCO4)o2)cc1,6%,-11%
COc1cc(OC)c2ccc(=O)oc2c1C(CC(=O)N1CCCCC1)c1ccc2c(c1)OCO2 (stereo not given),5%,nt

6 compounds from above, ordered by molar mass, rising:
Compound,N370S GC mod,KAT2A inh
N=c1oc2ccc(Cl)cc2cc1C(=O)NC1CCCCCC1,2%,-1%
COc1ccccc1CNS(=O)(=O)c1ccc(-c2cc(C)no2)cc1,2%,-13%
COCCn1c(SCC(=O)Nc2ccccc2OC)nnc1-c1ccco1,-1%,-3%
COc1cc(OC)c2ccc(=O)oc2c1C(CC(=O)N1CCCCC1)c1ccc2c(c1)OCO2 (stereo not given),5%,nt
CCN(CC)S(=O)(=O)c1ccc(-c2nnc(SCC(=O)Nc3ccc4c(c3)OCO4)o2)cc1,6%,-11%
COc1ccc(N2C(=O)CS(=O)(=O)C23C(=O)N(Cc2ccccc2F)c2ccccc23)cc1Cl (stereo not given),nt,-6%

Continuation:
Compound,N370S GC mod,KAT2A inh
COc1ccc(-c2nc(NC(=O)CSc3nnc(C)s3)ns2)cc1,4%,-13%
CCOC(=O)C1=C(C)NC(C)=C(C(=O)OC)[C@@H]1c1cccc(Cl)c1Cl,-11%[21.6 µM],-5%[21.4 µM]
COc1ccc(/C=N/n2c(=S)n(C)c3ccccc32)cc1OC,5%,-2%
O=C(Nc1ccc(F)cc1)c1cc2cc(Cl)ccc2[nH]1,-7%,2%
C/C(=C\C(=O)c1ccccc1)Nc1ccc2c(c1)OCO2,-10%,-6%
O=c1[nH]nc(SCc2nnc(-c3cccc(Cl)c3)o2)n1C1CCCCC1,14%,-4%
CCOc1ccccc1C(=O)Nc1cc2c(cc1N1CCCCC1)n(C)c(=O)n2C,nt,-4%
CCCCCCCCCC(=O)OCC(O)CO (stereo not given),3%,1%
Cc1ccccc1NC(=S)Nn1cnnc1,-4%,-8%
Cc1ccc(C(=O)Nc2c(C)n(C)n(-c3ccccc3)c2=O)cc1S(=O)(=O)N1CCCCC1,nt,2%

Continuation:
Compound,N370S GC mod,KAT2A inh
CC(=O)c1cc2c(cc1NS(=O)(=O)c1ccc3c(c1)OCCO3)OCO2,?,-8%
CC(C)n1c(-c2ccco2)csc1=Nc1cccnc1,5%,-2%
CCC1Oc2ccccc2N(CC(=O)NCCc2ccc(OC)c(OC)c2)C1=O (stereo not given),-2%,0%&-3%
CC1CN(C(=O)/C=C/c2ccc(SC(F)F)cc2)CC(C)O1 (stereo not given),-2%,-2%
CCOc1ncccc1C(=O)OCC(=O)N1CCc2ccccc21,7%,2%
O=C(O)c1ccc(S(=O)(=O)N2CCC(Cc3ccccc3)CC2)cc1,-14%,-7%
O=C(Nc1ccc(F)c(Cl)c1)C1CCCN(S(=O)(=O)c2cccc3nsnc23)C1 (stereo not given),nt,-10%
CCC1CN(C(=O)NCc2cccc(OC)c2)c2cc(Cl)ccc2O1 (stereo not given),7%,-13%&-13%
Clc1ccc(SCCCN2CCCCC2)cc1,-14%,0%
c1csc(CSc2nc3ccccc3s2)c1,4%,0%

Further records.
Compound,N370S GC mod,KAT2A inh
O=C(NCC1CCCO1)c1cccc(Oc2ccc([N+](=O)[O-])cc2Cl)c1 (stereo not given),10%,-9%
O=C1C2C(c3ccccc3)C=CC(c3ccccc3)C2C(=O)N1c1ccccn1 (stereo not given),7%,7%
COC(=O)C1CSC(C(=O)OC)N1C(=O)Nc1ccc(Cl)cc1 (stereo not given),10%,-7%
COc1ccccc1CC(=O)N1CCN(c2ccccn2)CC1,6%,0%
O=C(Nc1ccc(Cl)cc1)OCc1cn(-c2ccccc2)nn1,-11%,-27%
COc1ccc(N(CC(=O)Nc2ccc3c(c2)OCO3)S(=O)(=O)c2ccc(F)cc2)cc1,13%,-11%
CN(C)c1ccc(C=NCCC2(c3ccccc3)CCOC(C)(C)C2)cc1 (stereo not given),4%,-9%
COc1ccc(C(=O)NC2CCN(C(=S)Nc3cc(C)cc(C)c3)CC2)cc1,2%,-9%

Screening data from PubChem.
